KCNQ2 inh – KCNQ2 potassium channel inhibitors, primary screen, cell-based, CHO-K1, FluxOR thallium flux, B-score (AID 2156); 20 min; hits give low values; only compounds with negative scores are shown here; some inactives read as strong as hits; B-score at 10 µM; 310,000 tested, 1.1% active;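 active = fluorescence ratio B-score at most minus 3 library SDs, with starting brightness B-score within 2 library SDs, cut at about -5.5 in these data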
Target sequence (O88943 whole entry, looked up): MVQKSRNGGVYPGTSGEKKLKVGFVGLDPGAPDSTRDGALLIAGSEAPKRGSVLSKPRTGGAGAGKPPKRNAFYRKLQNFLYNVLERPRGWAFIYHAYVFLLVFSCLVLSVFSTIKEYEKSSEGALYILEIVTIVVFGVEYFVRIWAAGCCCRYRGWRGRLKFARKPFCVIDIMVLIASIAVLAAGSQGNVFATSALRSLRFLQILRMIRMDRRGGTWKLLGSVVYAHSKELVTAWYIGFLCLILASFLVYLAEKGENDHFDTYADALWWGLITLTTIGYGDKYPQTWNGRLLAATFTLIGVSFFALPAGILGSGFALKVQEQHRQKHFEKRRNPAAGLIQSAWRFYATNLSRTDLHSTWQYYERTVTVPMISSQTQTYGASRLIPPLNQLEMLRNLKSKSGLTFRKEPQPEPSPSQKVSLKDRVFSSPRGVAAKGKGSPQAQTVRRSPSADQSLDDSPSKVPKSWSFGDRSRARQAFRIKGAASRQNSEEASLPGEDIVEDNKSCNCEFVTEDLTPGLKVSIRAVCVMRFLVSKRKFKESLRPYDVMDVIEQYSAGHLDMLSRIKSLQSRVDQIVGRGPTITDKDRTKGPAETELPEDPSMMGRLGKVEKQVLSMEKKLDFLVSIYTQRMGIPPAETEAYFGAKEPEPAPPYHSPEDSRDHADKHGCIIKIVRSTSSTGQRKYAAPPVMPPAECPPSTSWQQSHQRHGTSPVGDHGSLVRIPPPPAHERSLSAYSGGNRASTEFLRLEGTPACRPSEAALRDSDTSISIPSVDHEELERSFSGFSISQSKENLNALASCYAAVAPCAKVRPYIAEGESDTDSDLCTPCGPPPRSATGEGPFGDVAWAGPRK
KCNQ2 inh baseline – second read-out of KCNQ2 inh, no call of its own (marks repeat the call); B-score; measured here: initial fluorescence intensity artifact check;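 brightness before thallium and not channel activity; 0 = typical well and far values either way flag optical interference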
An asterisk follows results filed as active; i = inactive.

Compound,KCNQ2 inh baseline,KCNQ2 inh
C(=N\N1CCN(Cc2ccccc2)CC1)/c1cccnc1,1.84,i
CN1C(=O)CC(C(=O)Nc2ccc(F)cc2)SC1=Nc1ccc2c(c1)OCO2 (stereo not drawn),-0.8,i
Cc1nnc(N/N=C/c2cc([N+](=O)[O-])c(N3CCC(C)CC3)cc2N2CCC(C)CC2)n1N,0.1,i
CC(C)OC(=O)c1c(NC(=O)C2CC=CCC2C(=O)O)sc2c1CCCCC2 (stereo not drawn),-0.01,i
Cc1cc(OC(=O)c2ccccc2Cl)ccc1N1C(=O)CCC1=O,2.37,i
O=C(Nc1ccccc1C(=O)NC1CCCCC1)c1ccco1,-1.21,i
O=C1c2ccccc2NC(c2cnc3ccccc3n2)N1O (stereo not drawn),5.42,i
Cc1ccc(N(C(C)C(=O)NCc2ccncc2)S(C)(=O)=O)cc1C (stereo not drawn),0.81,i
O=C1CCC(C(=O)N2CCC(CCO)CC2)CN1Cc1ccc(Cl)cc1 (stereo not drawn),0.25,i
O=C(c1ccccc1)c1c[nH]c(C(=O)NCCCn2ccnc2)c1,5.11,i
COc1ccccc1C1(CCNS(=O)(=O)c2ccc(C)cc2)CCOC(C(C)C)C1 (stereo not drawn),-0.8,i
CCN(CC)CCNC(=O)Cn1nc(Cc2cccnc2)c2ccccc2c1=O,0.61,i
COc1ccc(O)c(C(=O)c2cnc3c(c2)c(-c2ccc(F)cc2)c(C#N)c(=O)n3C)c1,-0.62,i
CCOc1ccc(NC(=O)CCC(=O)N/N=C/c2ccc3c(c2)OCO3)cc1,0.11,i
CC1CCC(=NNc2ccc(C(F)(F)F)cc2[N+](=O)[O-])CC1 (stereo not drawn),-1.26,i
C=CCn1c(C)c(C(C)=O)cc(NC(=O)c2ccccc2)c1=O,0.02,i
CCOc1ccc(CN2CCN(C(=O)c3ccco3)CC2)cc1,-1.32,i
CN(CC(=O)Nc1ccccc1Br)Cc1nc2ccccc2c(=O)[nH]1,-1.5,i
Cc1cc(N2CCN(C)CC2)ccc1NC(=O)c1c2c(nc3ccccc13)CCN(Cc1ccccc1)C2,-1.83,i
Cc1nn(Cc2ccccc2)c2c1C(c1ccco1)C(C#N)=C(N)O2 (stereo not drawn),0.69,i
On1nnc2cc(C(F)(F)F)ccc21,-1.08,i
COc1ccccc1CN1CCC(CNS(=O)(=O)c2cc(-c3cc(C)no3)ccc2C)CC1,-0.07,i
CCCN1CCN(C(=S)Nc2ccccc2C(F)(F)F)CC1,-0.16,i
O=C(Nc1ccc(NC(=O)C2CCCCC2)nc1)c1ccco1,-0.46,i
CC(=O)C1=C(O)CCC1=NCCc1ccccc1,-0.98,i
CN(Cc1ccccc1)Cc1ccccc1F,-0.84,i
Cc1nnc(NC(=O)C(C)Sc2nnc(CNC(=O)c3ccccc3F)n2C)s1 (stereo not drawn),-0.2,i
Cc1ccc(S(=O)(=O)NNC(=S)NC(C)(C)C)cc1,-1.1,i
CCOC(=O)N/N=C(\C)c1cccs1,1.07,i
Cc1cccc(C(=O)Nc2cccc(C(=O)N3CCOCC3)c2)c1,2.43,i
CCN(CC)CCNC(=O)CS(=O)Cc1nc(-c2ccc(C)cc2)oc1C (stereo not drawn),0.2,i
CCNCC(=O)N1c2ccccc2CCc2ccc(NC(=O)OCC)cc21,-0.2,i
COc1ccc(O)c(/C=N/NC(=S)NCCc2ccccc2)c1,-0.84,i
COc1ccc(NC(=O)CN2CCc3ccccc3C2)c([N+](=O)[O-])c1,-0.76,i
CC(Nc1nc(-c2cccnc2)nc2ccccc12)c1ccc(F)cc1 (stereo not drawn),-1.57,i
CC1CCc2nc(NC(=O)CN3CCN(c4ccc(F)cc4)CC3)sc2C1 (stereo not drawn),0.29,i
O=C1CN(C(=O)c2ccc(Br)o2)C(c2ccc(F)cc2)c2cc(Cl)ccc2N1 (stereo not drawn),-0.25,i
Cc1ccc(-c2ocnc2C(=O)N2CCN(C(=O)c3cccs3)CC2)cc1,-0.08,i
CC(C(=O)N1CCc2ccccc21)N1CCN(c2ccccn2)CC1 (stereo not drawn),1.22,i
CCOC(=O)Cc1cc(=O)n2[nH]c(C)c(-c3ccccc3OC)c2n1,0.06,i
O=C(CSc1nc(=O)n(CCN2CCOCC2)c2c1CCCC2)Nc1ccc(F)cc1F,0.53,i
COc1cc(/C=N/Nc2ccc(S(N)(=O)=O)cc2)cc(OC)c1OC,0.5,i
CN1C(=O)C(=O)/C(=C(/O)c2ccc(Br)cc2)C1c1ccccc1F (stereo not drawn),0.49,i
COc1ccc(OC)c(S(=O)(=O)NCCCn2ccnc2)c1,-0.28,i
Cc1cc(=O)oc2cc(OCC(=O)N3CC[C@@]4(O)CCCC[C@H]4C3)c(Cl)cc12,-0.09,i
Cc1ccc(C(=O)Nc2cccc3[nH]c(C(F)(F)F)nc23)cc1,0.17,i
CCCC(=O)Nc1cc(C)c(NC(=O)c2ccncc2)cn1,-0.39,i
CCC(=O)NC(Nc1sc2c(c1C(=O)OC)CCC2)C(Cl)(Cl)Cl (stereo not drawn),-0.5,i
COc1cc(/C=C/C(=O)OCC(=O)NC2CC2)cc(S(=O)(=O)N2CCc3ccccc32)c1OC,-0.79,i
O=C(NCCCn1ccnc1)Nc1cccc(Cl)c1,1.01,i

Remaining list, next part
Compound,KCNQ2 inh baseline,KCNQ2 inh
O=C(COC(=O)c1ccc(O)cc1)Nc1ccccc1-c1ccccc1,-0.27,i
Cc1ccc(-c2cc(Cc3ccccc3)c(=O)[nH]n2)cc1,0.27,i
CC(Oc1ccc(Cl)cc1Cl)C(=O)OCn1nnc2ccccc2c1=O (stereo not drawn),1.41,i
Cc1ccc2nc(SCC(=O)Nc3cc([N+](=O)[O-])ccc3F)[nH]c2c1,-1.74,i
CC(C)CN(C(=O)COC(=O)Cc1n[nH]c(=O)c2ccccc12)C1CCS(=O)(=O)C1 (stereo not drawn),1.88,i
CCOC(=O)c1c(C)[nH]c(C)c1C(=O)CSc1nnnn1-c1ccccc1,-1.76,i
CNc1nc(-c2ccc3c(c2)CCN3C(=O)c2ccccc2C)cs1,-0.49,i
CCOC1=C/C(=C/c2c(N)n3nc(-c4ccccc4)sc3nc2=O)C=CC1=O,2.25*,-6.88*
CCc1ccc(OCc2ccc(C(=O)O)o2)cc1,1.36,i
O=C(N/N=C1/CC(c2ccccc2)Oc2ccccc21)C1CC1 (stereo not drawn),-0.69,i
Cc1ccc([N+](=O)[O-])cc1N(CC(=O)Nc1ccc(S(=O)(=O)Nc2cccc(C(F)(F)F)c2)cc1)S(C)(=O)=O,0.78,i
Cc1ccc(-n2c(-c3ccncc3)nnc2-c2ccco2)cc1,1.01,i
Cc1[nH]c2ccccc2c1C(=O)COC(=O)Cn1c(C)nc2ccccc21,-0.96,i
CCCCP(=O)(CCCC)CCP(=O)(c1ccccc1)c1ccccc1,0.8,i
CCc1nc(N2CCOCC2)c(C#N)c2c1COC(C)(C)C2,-0.82,i
O=C(NC12CC3CC(CC(C3)C1)C2)C1CCCN1C(=O)NC1CCCCC1 (stereo not drawn),-0.12,i
COc1ccccc1/C=C(\NC(=O)c1ccc(OC)c(OC)c1)C(=O)Nc1cccc([N+](=O)[O-])c1,0.56,i
Cc1ccnc(N2C(=O)c3ccccc3C2Nc2cccc(C)c2C)c1 (stereo not drawn),0.11,i
O=C(Nc1cc(Cl)ccc1-n1cncn1)c1ccc(F)c(S(=O)(=O)N2CCOCC2)c1,-0.09,i
C=CCN(CC=C)C(=O)c1ccncc1,-0.43,i
CC(=O)c1ccc(NC(=O)C(C)N(C)CC(=O)Nc2ccc(Cl)cc2)cc1 (stereo not drawn),-0.04,i
CN1CCNC(=O)C1CC(=O)NCC1(c2ccccc2)CCCCC1 (stereo not drawn),-1.97,i
CC(C)CNC(=O)c1cccc(NC(=O)C(C)Oc2ccccc2)c1 (stereo not drawn),-0.01,i
Cc1ccc(-n2c(-c3ccco3)nc3c(cnn3-c3ccccc3C)c2=O)cc1,-0.47,i
S=C(NCc1ccc2c(c1)OCO2)Nc1ccc(-c2nc3ccccc3[nH]2)cc1,-1.55,i

A second format for part of the listing above.
| KCNQ2 inh baseline | KCNQ2 inh | Compound |
| --- | --- | --- |
| -0.43 | i | C=CCN(CC=C)C(=O)c1ccncc1 |
| -0.04 | i | CC(=O)c1ccc(NC(=O)C(C)N(C)CC(=O)Nc2ccc(Cl)cc2)cc1 (stereo not drawn) |

Four entries from above, reformatted:
C=CCN(CC=C)C(=O)c1ccncc1
  KCNQ2 inh baseline: -0.43
  KCNQ2 inh: i

CC(=O)c1ccc(NC(=O)C(C)N(C)CC(=O)Nc2ccc(Cl)cc2)cc1 (stereo not drawn)
  KCNQ2 inh baseline: -0.04
  KCNQ2 inh: i

CN1CCNC(=O)C1CC(=O)NCC1(c2ccccc2)CCCCC1 (stereo not drawn)
  KCNQ2 inh baseline: -1.97
  KCNQ2 inh: i

CC(C)CNC(=O)c1cccc(NC(=O)C(C)Oc2ccccc2)c1 (stereo not drawn)
  KCNQ2 inh baseline: -0.01
  KCNQ2 inh: i

(list continues)
Compound,KCNQ2 inh baseline,KCNQ2 inh
Cc1ccc(CSC2=NCCN2C(=O)c2ccc([N+](=O)[O-])cc2)cc1,-1.18,i
COc1ccc(/C=C/C(=O)NC2CC3CCC2C3)cc1 (stereo not drawn),-0.96,i
CN(C(=O)CN1CCN(c2ccc([N+](=O)[O-])cn2)CC1)c1ccccc1,0.08,i
CCOc1ccccc1CN1CCNC(=O)C1CC(=O)NCCCn1cccn1 (stereo not drawn),-0.23,i
CCCOc1ccc(/C=N/NC(=O)CN2CCCCC2)cc1OCC,-0.29,i
CCOC(=O)c1ccc(S(=O)(=O)N2CCN(CC(=O)NC(=O)NC(C)(C)C)CC2)cc1,2.38,i
O=C(Nc1ccccc1N1CCOCC1)c1cc2ccccc2o1,-1,i
Cc1nc(S(=O)(=O)N2CCN(C3c4ccccc4-c4ccccc43)CC2)cn1C,1.96,i
COC(=O)C1CSC(C)(C)C(=O)N1 (stereo not drawn),-0.18,i
COc1ccc(C(=O)CC(=O)C(=O)Nc2cc(OC)ccc2OC)cc1,-0.09,i
O=c1c2ccccc2nc(/C=C/c2c[nH]c3ccccc23)n1CCO,3.02,i
COc1ccc(C(C(=O)NCCC(C)C)N(CCCO)C(=O)c2snc(C(N)=O)c2N)cc1OC (stereo not drawn),1.38,i
Cc1cc(NCc2ccco2)n2c(nc3ccccc32)c1C#N,0.01,i
COc1ccccc1Nc1ncnc2ccc(C)cc12,-0.39,i
COc1ccc(OC)c(-c2cnc(OC(C)(C)C)nc2OC(C)(C)C)c1,-0.77*,-5.74*
CC1(C)Nc2ccccc2C(=O)N1NC(=O)c1ccccc1,1.55,i
CCOC(=O)C1Nc2c(F)cc(C)cc2C2c3ccccc3CC12 (stereo not drawn),0.55,i
O=C(Oc1ccccc1C(=O)Nc1ccccc1)c1ccc(Br)c([N+](=O)[O-])c1,1.02,i
CCn1c(COc2ccc(C)cc2)nnc1SCc1ccc(C#N)cc1,0.07,i
NC(=O)c1cnn2c(C(F)(F)F)cc(-c3ccc(F)cc3)nc12,-2.4,i
Cc1c(NC(=O)CSc2nnc(C(C)Oc3ccc(Cl)cc3)n2-c2ccccc2)c(=O)n(-c2ccccc2)n1C (stereo not drawn),0.59,i
Cc1oc(-c2ccccc2Cl)nc1CN1CCCCC1CO (stereo not drawn),0.06,i
Cc1c(NC(=O)c2cc(-c3cccs3)nc3ccccc23)c(=O)n(-c2ccccc2)n1C,-1.96,i
Cc1cccc(Oc2ccc(N)cc2)c1,-0.05,i
CCC1CCCCN1C(=O)Cn1c(C(=O)OC)cc2sc(Cl)cc21 (stereo not drawn),-3.02,i
COCCN(C(=O)CSc1nnc(-c2ccccc2OC)o1)c1c(N)n(CC(C)C)c(=O)[nH]c1=O,1.48,i
CCC(Sc1nncn1C)C(=O)Nc1ccccc1OC (stereo not drawn),-1.03,i
NC(=S)Nc1ccccc1Br,0.46,i
Cc1ccc(C(=O)OCC(=O)Nc2ccc3[nH]c(=O)[nH]c3c2)cc1[N+](=O)[O-],0.76,i
COc1ccc(CNC(=O)CCN2C(=O)c3ccccc3C2=O)cc1OC,-0.43,i
O=C(O)CCC(=O)c1ccc2c(c1)OCCCO2,0.41,i
CC(C)CCn1c(SCC(=O)OCn2nnc3ccccc3c2=O)nc2ccccc2c1=O,0.74,i
CCCCCC(=O)N/N=C(\C)c1ccc(N2CCCCC2)cc1,0.99,i
CC(C)OP(=O)(OC(C)C)C(Nc1ccc([N+](=O)[O-])cc1)c1cccc([N+](=O)[O-])c1 (stereo not drawn),0.55,i
O=C(c1ccco1)N1CCN(C(=O)c2cc(-c3ccccn3)nc3ccc(Cl)cc23)CC1,1.5,i
COc1cc(C(=O)Nc2nc3ccc(S(=O)(=O)N4CCOCC4)cc3s2)cc(OC)c1OC,0.36,i
CCOc1ccc(N2C(=O)Nc3ccc(Br)cc3C2(O)C(=O)NC(C)C)cc1 (stereo not drawn),0.07,i
COc1ccccc1NC(=S)N=Nc1c(O)[nH]c2ccc(Br)cc12,-0.54,i
CCn1ncc(CNC(=O)C2(C)CC2(Br)Br)c1C (stereo not drawn),1.79,i
CC(C)(O)C(=O)NNC(=S)Nc1cccc(C(F)(F)F)c1,-1.06,i
Cc1cc(NC(=O)CSc2nnc(-c3ccccc3)n2Cc2ccco2)no1,-0.65,i

A portion of the library (hit frequency here may not be typical).
